supercomplex z: supercomplex reporter luminescence per Hoechst cell count – Hoechst nuclei count (AID 1645838). z-score at 11 µM unless noted. 2,000 tested, 5% active. Cells, luminescence/Hoechst cell count ratio, supercomplex reporter; active compounds read high;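 active means mean z-score of two plates above 1.96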;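 further: control cybrid cells; higher means more mitochondrial supercomplex formation; U2OS-based cells read after two days; 0 = mean of sample wells on the plate; doses worked out from stocks diluted about 900-fold with the highest of each compound shown; many of its hits are not listed in these tables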
supercomplex z cell count: recorded beside supercomplex z, whose call it bears; cell count; measured here: cell number, Hoechst nuclei count;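 nuclei per well as mean of two plates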
An asterisk follows results filed as active.

Results for O=C(NC1CCCc2ccccc21)c1ccc2c(c1)OCO2 (configuration not stated) ?
supercomplex z: 0.36; supercomplex z cell count: 4816

How did CC(C)c1cc(Oc2c(Cl)cc(-n3nc(C#N)c(=O)[nH]c3=O)cc2Cl)n[nH]c1=O do in these assays?
supercomplex z: 0.32; supercomplex z cell count: 3542

How did Nc1cc(F)ccc1NC(=O)C=Cc1cnn(CC=Cc2ccccc2)c1 do in these assays?
supercomplex z: 0.26; supercomplex z cell count: 3546

How did O=C(NOCC1CC1)c1ccc(F)c(F)c1Nc1ccc(I)cc1Cl do in these assays?
supercomplex z: inactive

What do the screens show for `CN(C)C(=O)Nc1cccc(-c2ccc(N(C)C)cc2)c1`?
supercomplex z: -0.22; supercomplex z cell count: 4438

How did COc1cc(C(=O)NC2CCN(C)CC2)ccc1Nc1ncc2c(n1)N(C1CCCC1)C(C)CC(=O)N2C (configuration not stated) do in these assays?
supercomplex z: inactive

How did COC(=O)NC(C)CNc1nccc(-c2cn(C(C)C)nc2-c2cc(Cl)cc(NS(C)(=O)=O)c2F)n1 (configuration not stated) do in these assays?
supercomplex z: 4.2*; supercomplex z cell count: 1620*

How did CCN(CC)Cc1ccc(C(=O)N(CCc2ccccc2OC)C2CCNC2)cc1 (configuration not stated) do in these assays?
supercomplex z: 3.1*; supercomplex z cell count: 3342*

How did CCCCCc1ccc(C=CC(=O)Nc2ccccc2C(=O)O)cc1 do in these assays?
supercomplex z: -0.45; supercomplex z cell count: 6618

Results for CN(CC=CC#CC(C)(C)C)Cc1cccc2ccccc12 ?
supercomplex z: -0.29; supercomplex z cell count: 5180

Results for CCCCc1ccc(O)cc1O ?
supercomplex z: -0.38; supercomplex z cell count: 5368

How did N#CC(=Cc1ccc(-c2cc(Cl)ccc2Cl)o1)C(=O)Nc1cccc2ncccc12 do in these assays?
supercomplex z: -0.98; supercomplex z cell count: 3204

Results for O=c1cc(-c2ccccc2)oc2c1ccc1ccccc12 ?
supercomplex z: -0.39; supercomplex z cell count: 7068

Results for CC1(C)SCCN(S(=O)(=O)c2ccc(Oc3ccncc3)cc2)C1C(=O)NO (configuration not stated) ?
supercomplex z: -0.49; supercomplex z cell count: 5162

How did Cc1ccc(C(=O)N(CCCN)C(c2nc3cc(Cl)ccc3c(=O)n2Cc2ccccc2)C(C)C)cc1 (configuration not stated) do in these assays?
supercomplex z: inactive

Results for CNC(C)C(=O)NC1CN(C(=O)CC(C)C)CCC2CCC(C(=O)NC(c3ccccc3)c3ccccc3)N2C1=O (configuration not stated) ?
supercomplex z: 0.088; supercomplex z cell count: 6260

How did NC(=O)c1cnc(NC2CCCCC2N)nc1Nc1cccc(-n2nccn2)c1 (configuration not stated) do in these assays?
supercomplex z: 0.74; supercomplex z cell count: 2997

Results for O=C(O)c1cc(O)c2ccccc2c1O ?
supercomplex z: 2.6*; supercomplex z cell count: 3942*

How did CC(=O)NC(CC(C)C)C(=O)NC(CC(C)C)C(=O)NC(C=O)CCCN=C(N)N (configuration not stated) do in these assays?
supercomplex z: 0.41; supercomplex z cell count: 4386

Results for O=c1c(-c2ccc(O)c(O)c2)coc2cc(O)ccc12 ?
supercomplex z: 0.67; supercomplex z cell count: 5439

Next part (two carried over from the part before).
How did CC(=O)NC(CC(C)C)C(=O)NC(CC(C)C)C(=O)NC(C=O)CCCN=C(N)N (configuration not stated) do in these assays?
supercomplex z: 0.41; supercomplex z cell count: 4386

Results for O=c1c(-c2ccc(O)c(O)c2)coc2cc(O)ccc12 ?
supercomplex z: 0.67; supercomplex z cell count: 5439

What do the screens show for `O=C(O)c1cccc(Nc2ccc(C(F)(F)F)cc2)c1`?
supercomplex z: -0.18; supercomplex z cell count: 6096

What do the screens show for `CCC(C)n1cc(C)c2c(C(=O)NCc3c(C)cc(C)[nH]c3=O)cc(-c3ccc(N4CCNCC4)nc3)cc21` (configuration not stated)?
supercomplex z: 0.1; supercomplex z cell count: 5224

How did O=C(NCCC1CC1)c1ccc(N2CCN(C(=O)c3cc(F)ccc3C(F)(F)F)CC2)nn1 do in these assays?
supercomplex z: -0.75; supercomplex z cell count: 7045

Results for O=c1ncccn1C1OC(CO)C(O)C1O (configuration not stated) ?
supercomplex z: 0.39; supercomplex z cell count: 3505

Results for O=C(Oc1nsnc1N1CCCCC1)N1CCOCC1 ?
supercomplex z: 1.5; supercomplex z cell count: 4256

Results for C#CCN(C)CCCOc1ccc(Cl)cc1Cl ?
supercomplex z: -0.46; supercomplex z cell count: 5981

What do the screens show for `Cc1cnc(-c2ccccc2C(C)C)nc1NCc1ccc(-n2ccnn2)cc1`?
supercomplex z: -0.23; supercomplex z cell count: 4688

Results for O=C(Nc1ccc(Cl)cc1)c1cc(Cl)ccc1NS(=O)(=O)c1ccc(Cl)c([N+](=O)[O-])c1 ?
supercomplex z: 0.49; supercomplex z cell count: 4222

Results for COc1ccc(C(=O)N2CCN(C(=O)C=Cc3ccc(Br)cc3)CC2)cc1 ?
supercomplex z: -0.66; supercomplex z cell count: 4889

Results for COC(=O)c1sccc1NC(=O)Cc1cccs1 ?
supercomplex z: 0.97; supercomplex z cell count: 4252

How did CC1(C)CCC(CN2CCN(c3ccc(C(=O)NS(=O)(=O)c4ccc(NCC5CCOCC5)c([N+](=O)[O-])c4)c(Oc4cnc5[nH]ccc5c4)c3)CC2)=C(c2ccc(Cl)cc2)C1 do in these assays?
supercomplex z: -0.56; supercomplex z cell count: 4663

What do the screens show for `Clc1ccc(Nc2nnc(Cc3ccncc3)c3ccccc23)cc1`?
supercomplex z: -0.52; supercomplex z cell count: 4454

What do the screens show for `O=C(O)c1cc(C(F)(F)F)ccc1N1CCC(OCc2ccccn2)C1` (configuration not stated)?
supercomplex z: -0.25; supercomplex z cell count: 5974

Results for O=C(c1ccc(OCCN2CCCCC2)cc1)c1c(-c2ccc(O)cc2)sc2cc(O)ccc12 ?
supercomplex z: 0.18; supercomplex z cell count: 5652

What do the screens show for `COc1cc(C(=O)N2CCC(N3CCN(C)CC3)CC2)ccc1Nc1ncc2c(n1)N(C)c1ccccc1C(=O)N2C`?
supercomplex z: 4.4*; supercomplex z cell count: 3323*

How did CSCCC(NC(=O)C(CC(C)C)NC(=O)C(Cc1cnc[nH]1)NC(=O)CNC(=O)C(NC(=O)C(C)NC(=O)C(Cc1c[nH]c2ccccc12)NC(=O)C(CCC(N)=O)NC(=O)C(CC(N)=O)NC(=O)CNC(=O)C(CC(C)C)NC(=O)C(CCCNC(=N)N)NC(=O)C(CCC(N)=O)NC(=O)C1CCC(=O)N1)C(C)C)C(N)=O (configuration not stated) do in these assays?
supercomplex z: -0.67; supercomplex z cell count: 5782

How did O=c1cc(-c2ccccc2)oc2c(O)c(O)ccc12 do in these assays?
supercomplex z: 1.4; supercomplex z cell count: 2718

Results for O=c1cc(-c2cccc3c2Sc2ccccc2S3)oc(N2CCOCC2)c1 ?
supercomplex z: 0.32; supercomplex z cell count: 4368

How did Cn1cc(C=C2C(=O)Nc3cccnc32)c2ccccc21 do in these assays?
supercomplex z: -0.52; supercomplex z cell count: 4520

Results for NC(=O)C(c1ccccc1)(c1ccc(F)cc1)c1ccc(F)cc1 ?
supercomplex z: 0.8; supercomplex z cell count: 6720

Results for Cn1cc(CNCC2CCN(c3ncc(C(=O)NO)cn3)CC2)c2ccccc21 ?
supercomplex z: inactive

What do the screens show for `O=C(O)CCCC=CCC1C(O)CC(O)C1C=CC(O)COc1cccc(Cl)c1` (configuration not stated)?
supercomplex z: -0.02; supercomplex z cell count: 4925

Results for O=C(O)c1ccc2nc(-c3cc(Cl)cc(Cl)c3)oc2c1 ?
supercomplex z: 0.34; supercomplex z cell count: 7375

What do the screens show for `CCOC(=O)c1ccc(C#Cc2ccc3c(c2)C(C)(C)CCS3)nc1`?
supercomplex z: -0.33; supercomplex z cell count: 6586

Results for NC(CCNCc1ccc(Cl)cc1)C(=O)N1CCCCC1 (configuration not stated) ?
supercomplex z: -1.2; supercomplex z cell count: 5719

Results for O=C(O)C1CCC(c2cc3cccnc3c(-c3cccc(F)c3)n2)CC1 (configuration not stated) ?
supercomplex z: 1.8; supercomplex z cell count: 6425

How did NCCc1ccc(O)c(O)c1 do in these assays?
supercomplex z: -0.28; supercomplex z cell count: 5448

What do the screens show for `NC(N)=NCCCC(NC(=O)COCC(c1ccccc1)c1ccccc1)C(=O)O` (configuration not stated)?
supercomplex z: 0.1; supercomplex z cell count: 4630

Results for Cc1cnc(Nc2ccc(F)cc2Cl)nc1-c1c[nH]c(C(=O)NC(CO)c2cccc(Cl)c2)c1 (configuration not stated) ?
supercomplex z: inactive

What do the screens show for `Cc1ccc(NC(=O)c2cccc(C(C)(C)C#N)c2)cc1Nc1ccc2ncn(C)c(=O)c2c1`?
supercomplex z: 3.1*; supercomplex z cell count: 1957*

How did FC(F)c1nc2ccccc2n1-c1nc(N2CCOCC2)nc(N2CCOCC2)n1 do in these assays?
supercomplex z: 0.24; supercomplex z cell count: 3460

What do the screens show for `CCCc1nn(C)c2c(=O)[nH]c(-c3cc(S(=O)(=O)N4CCN(C)CC4)ccc3OCC)nc12`?
supercomplex z: 0.42; supercomplex z cell count: 6216

Results for CC(C)(C)OC(=O)CN(Cc1ccc(Cl)cc1)Cc1ccc([N+](=O)[O-])s1 ?
supercomplex z: -0.14; supercomplex z cell count: 6642

Results for Cc1ccc(F)cc1C(=O)Nc1ccc(C(=O)N2Cc3cccn3Cc3ccccc32)c(Cl)c1 ?
supercomplex z: -1; supercomplex z cell count: 6302

How did CC(OC1OCCN(Cc2n[nH]c(=O)[nH]2)C1c1ccc(F)cc1)c1cc(C(F)(F)F)cc(C(F)(F)F)c1 (configuration not stated) do in these assays?
supercomplex z: 1.4; supercomplex z cell count: 2825

What do the screens show for `Cc1cc(C(C)(C)C)c(O)c(C(C)(C)C)c1`?
supercomplex z: -0.35; supercomplex z cell count: 6243

What do the screens show for `CCCC(=O)Nc1nc(-c2ccccc2)cc(-c2ccccc2)n1`?
supercomplex z: -0.34; supercomplex z cell count: 5141

Results for O=C(CC(CSc1ccccc1)C(=O)O)c1ccc(-c2ccc(Cl)cc2)cc1 (configuration not stated) ?
supercomplex z: 0.12; supercomplex z cell count: 4886

What do the screens show for `CN1CCN(c2ccc(Nc3cc(-c4cccc(-n5ccc6cc(C7CC7)cc(F)c6c5=O)c4CO)cn(C)c3=O)nc2)CC1`?
supercomplex z: 2.3*; supercomplex z cell count: 4618*

Results for OC(COc1cccc2ncccc12)CN1CCN(C2c3ccccc3C3C(c4ccccc42)C3(F)F)CC1 (configuration not stated) ?
supercomplex z: -1.9; supercomplex z cell count: 3798

The closing 5 records of the section above are carried over, then new ones follow:
What do the screens show for `Cc1cc(C(C)(C)C)c(O)c(C(C)(C)C)c1`?
supercomplex z: -0.35; supercomplex z cell count: 6243

What do the screens show for `CCCC(=O)Nc1nc(-c2ccccc2)cc(-c2ccccc2)n1`?
supercomplex z: -0.34; supercomplex z cell count: 5141

Results for O=C(CC(CSc1ccccc1)C(=O)O)c1ccc(-c2ccc(Cl)cc2)cc1 (configuration not stated) ?
supercomplex z: 0.12; supercomplex z cell count: 4886

What do the screens show for `CN1CCN(c2ccc(Nc3cc(-c4cccc(-n5ccc6cc(C7CC7)cc(F)c6c5=O)c4CO)cn(C)c3=O)nc2)CC1`?
supercomplex z: 2.3*; supercomplex z cell count: 4618*

Results for OC(COc1cccc2ncccc12)CN1CCN(C2c3ccccc3C3C(c4ccccc42)C3(F)F)CC1 (configuration not stated) ?
supercomplex z: -1.9; supercomplex z cell count: 3798

What do the screens show for `CC(C)(N)C(=O)NC(COCc1ccccc1)C(=O)N1CCC2(CC1)CN(S(C)(=O)=O)c1ccccc12` (configuration not stated)?
supercomplex z: -0.24; supercomplex z cell count: 5383

What do the screens show for `Cc1cc(Nc2cc(NC(=O)c3c(Cl)cccc3Cl)ccn2)nc(N)n1`?
supercomplex z: inactive

What do the screens show for `CN(C)C1CCN(C(=O)c2ccc(NC(=O)Nc3ccc(-c4nc(N5CCOCC5)nc(N5CCOCC5)n4)cc3)cc2)CC1`?
supercomplex z: inactive

What do the screens show for `Nc1ncnc2c1C(=O)N(c1ccc(C3CCC(CC(=O)O)CC3)cc1)CCO2` (configuration not stated)?
supercomplex z: -0.27; supercomplex z cell count: 5022

What do the screens show for `COC(=O)CCc1ccc(OCC(O)CNC(C)C)cc1` (configuration not stated)?
supercomplex z: -0.48; supercomplex z cell count: 6153

Results for CC(C)Oc1ccc(C(=O)NC(CNC(=O)CN(C)C)Cc2ccc(-c3cn4cccc(C(C)O)c4n3)cc2)cc1Cl (configuration not stated) ?
supercomplex z: inactive

What do the screens show for `COc1ccccc1N1CCN(CCN2C(=O)CC3(CCCC3)CC2=O)CC1`?
supercomplex z: 0.15; supercomplex z cell count: 5852

Results for S=c1nc[nH]c2nc[nH]c12 ?
supercomplex z: inactive

Results for N=C(N)c1cc2ccc(OC(=O)c3cccs3)cc2s1 ?
supercomplex z: 0.27; supercomplex z cell count: 6293

Results for CC(CSC(=O)c1ccccc1)C(=O)N1CC(Sc2ccccc2)CC1C(=O)O (configuration not stated) ?
supercomplex z: -0.91; supercomplex z cell count: 6110

Results for COc1ccc(Cc2nn3c(C(CCCc4ccccc4)C(C)O)nc(C)c3c(=O)[nH]2)cc1OC (configuration not stated) ?
supercomplex z: 0.51; supercomplex z cell count: 5344

What do the screens show for `COc1cc2nc(N(C)CCCNC(=O)C3CCCO3)nc(N)c2cc1OC` (configuration not stated)?
supercomplex z: 0.15; supercomplex z cell count: 4878

How did CCc1ccc(S(=O)(=O)c2nnn3c2nc(NCc2cccs2)c2sccc23)cc1 do in these assays?
supercomplex z: 1.2; supercomplex z cell count: 7026

What do the screens show for `Nc1nccc2c1ncn2C1C=C(CO)C(O)C1O` (configuration not stated)?
supercomplex z: inactive

How did O=C1NC(=O)C(=Cc2ccc3nccnc3c2)S1 do in these assays?
supercomplex z: -0.47; supercomplex z cell count: 3900

Source: PubChem

Not all compounds are listed; count on the stated rates, not on these rows.
